High-throughput results (PubChem BioAssay)
A1 apoptosis 2 – blocks A1, raising caspase activity | caspase activation, % (concentration not given with the values) | MEF A1-2A-BIM cells, caspase-Glo luminescence, 3 h; percent of clofoctol response, DMSO zero | 24,000 tested, under 10 active; in the data active = caspase activation above about 5.9%;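 note: wells of about 30 µL received 50 nL stock; the first replicate is given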
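System: mouse embryonic fibroblasts co-expressing A1 and BIM (A1-2A-BIM), primed for A1 dependence; amount: 2500 cells/well; doses: 50 nL pinned compound; schedule: cells settled overnight, compound exposure 3 h at 37 °C, 5% CO2; detection: Caspase-Glo 3/7 luminescence, 1 h at room temperature; read-out: Caspase-3/7 activation, seen as rise in luminescence signal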
An asterisk follows results filed as active. Not all compounds are listed, so the mix of outcomes need not match the whole.

The first 2 compounds as a preview:
SMILES | A1 apoptosis 2
C[C@@H]1CN([C@@H](C)CO)C(=O)c2cc(NS(=O)(=O)c3ccccc3)ccc2O[C@@H](C)CCCCO[C@H]1CN(C)S(=O)(=O)c1cccs1 | 0.5
C[C@H](CO)N1C[C@H](C)[C@H](CN(C)S(=O)(=O)c2cn(C)cn2)Oc2ccc(NS(=O)(=O)c3ccccc3)cc2CC1=O | -1.3

The list itself, previewed entries included:
SMILES | A1 apoptosis 2
C[C@@H]1CN([C@@H](C)CO)C(=O)c2cc(NS(=O)(=O)c3ccccc3)ccc2O[C@@H](C)CCCCO[C@H]1CN(C)S(=O)(=O)c1cccs1 | 0.5
C[C@H](CO)N1C[C@H](C)[C@H](CN(C)S(=O)(=O)c2cn(C)cn2)Oc2ccc(NS(=O)(=O)c3ccccc3)cc2CC1=O | -1.3
CNC[C@H]1Oc2ccc(NC(=O)Cc3ccccc3)cc2CC(=O)N([C@H](C)CO)C[C@H]1C | 0.6
C[C@@H]1CCCCO[C@@H](CN(C)C(=O)Cc2ccccc2)[C@H](C)CN([C@@H](C)CO)C(=O)c2cc(NS(=O)(=O)c3cccs3)ccc2O1 | -0.5
C[C@@H]1CN([C@H](C)CO)C(=O)c2cc(NS(=O)(=O)c3cn(C)cn3)ccc2O[C@H]1CN(C)C(=O)NC1CCCCC1 | 0.4
C[C@@H]1CCCCO[C@@H](CN(C)CC2CCCCC2)[C@@H](C)CN([C@H](C)CO)C(=O)c2cc(NS(=O)(=O)c3ccc(F)cc3)ccc2O1 | 0.7
CC(C)NC(=O)N(C)C[C@@H]1Oc2ccc(NS(=O)(=O)c3cccs3)cc2C(=O)N([C@H](C)CO)C[C@@H]1C | -1.0
O=C(C1=C[C@@H](c2ccc(Br)cc2)C[C@@H](OCc2ccc(CO)cc2)O1)N1CCCC1 | -1.1
Cc1noc(C)c1NC(=O)N(C)C[C@@H]1Oc2ccc(NC(=O)Nc3ccc(F)cc3)cc2CC(=O)N([C@H](C)CO)C[C@H]1C | 0.9
Cc1ccc(S(=O)(=O)N(C)C[C@H]2OCCCC[C@@H](C)Oc3ccc(NC(=O)NC(C)C)cc3C(=O)N([C@@H](C)CO)C[C@H]2C)cc1 | 1.3
CC(C)(C)OC(=O)Nc1cccc(/C=N/NC(=O)CCCCCCC(=O)Nc2ccccc2O)c1 | -0.5
C[C@H]1CN([C@@H](C)CO)C(=O)Cc2cc(NC(=O)Nc3cccc4ccccc34)ccc2O[C@@H]1CN(C)Cc1ccc(C(F)(F)F)cc1 | -0.3
CC(C)(C)OC(=O)NC1(/C=N/NC(=O)CCCCCC(=O)NO)CCCC1 | 0.5
O=C(CCCCCCC(=O)Nc1ccccc1O)N/N=C/c1c(F)c(F)c(F)c(F)c1F | 1.8
CC(C)NC(=O)Nc1cccc2c1O[C@@H](CN(C)Cc1ccc(C(=O)O)cc1)[C@@H](C)CN([C@@H](C)CO)C2=O | -0.6
C[C@H]1CCCCO[C@@H](CN(C)Cc2ccncc2)[C@@H](C)CN([C@@H](C)CO)C(=O)c2cc(NC(=O)Nc3ccc4c(c3)OCO4)ccc2O1 | -0.7
C[C@@H]1CN([C@H](C)CO)C(=O)c2cccc(NC(=O)C3CC3)c2O[C@@H]1CN(C)Cc1ccncc1 | 0.1
COc1ccc(S(=O)(=O)N(C)C[C@@H]2OCCCC[C@H](C)Oc3ccc(NS(=O)(=O)c4ccc(Cl)cc4)cc3C(=O)N([C@H](C)CO)C[C@H]2C)cc1 | -1.0
CC(C)NC(=O)N(C)C[C@H]1Oc2ccc(NC(=O)Nc3cccc4ccccc34)cc2CC(=O)N([C@@H](C)CO)C[C@@H]1C | 0.5
C[C@H](CO)N1C[C@H](C)[C@@H](CN(C)S(=O)(=O)c2cccs2)OCCCC[C@H](C)Oc2ccc(NS(=O)(=O)c3cn(C)cn3)cc2C1=O | 0.2
C[C@@H]1CN([C@@H](C)CO)C(=O)c2cccc(NC(=O)Nc3ccc(C(F)(F)F)cc3)c2O[C@H]1CN(C)Cc1ccccc1 | 0.2
Cc1noc(C)c1NC(=O)Nc1ccc2c(c1)CC(=O)N([C@@H](C)CO)C[C@@H](C)[C@@H](CN(C)Cc1ccc(Cl)c(Cl)c1)O2 | -0.6
Cc1noc(C)c1S(=O)(=O)N(C)C[C@H]1Oc2ccc(NS(=O)(=O)c3ccc(F)cc3)cc2CC(=O)N([C@H](C)CO)C[C@@H]1C | -0.3
C[C@@H]1CN([C@H](C)CO)C(=O)Cc2cc(NS(=O)(=O)c3ccc(F)cc3)ccc2O[C@H]1CN(C)Cc1ccc(C(F)(F)F)cc1 | 0.9
C[C@@H]1CCCCO[C@@H](CN(C)C(=O)Cc2ccccc2)[C@@H](C)CN([C@@H](C)CO)C(=O)c2cc(NC(=O)Nc3ccc(F)cc3)ccc2O1 | 0.6
C[C@H]1CN([C@@H](C)CO)C(=O)Cc2cc(NC(=O)CCN3CCOCC3)ccc2O[C@H]1CN(C)Cc1ccncc1 | 0.2
O=C(NO)c1ccc(C(=O)N/N=C/c2ccc([N+](=O)[O-])s2)cc1 | -0.3
C[C@@H]1CN([C@H](C)CO)C(=O)Cc2cc(NC(=O)CCN3CCOCC3)ccc2O[C@H]1CN(C)S(=O)(=O)c1ccc(Cl)cc1 | 1.9
C[C@@H]1CN([C@@H](C)CO)C(=O)c2cc(NC(=O)Cc3ccccc3)ccc2O[C@@H](C)CCCCO[C@@H]1CN(C)C(=O)C1CCCCC1 | -0.9
Cc1cc(C(=O)Nc2cccc3c2O[C@H](CN(C)C(=O)Nc2ccc(C(F)(F)F)cc2)[C@@H](C)CN([C@H](C)CO)C3=O)n(C)n1 | -0.2
C[C@H](CO)N1C[C@H](C)[C@@H](CN(C)Cc2ccc(C(F)(F)F)cc2)OCc2cn(nn2)CCCC1=O | 0.1
C[C@@H]1CN([C@H](C)CO)C(=O)Cc2cc(NC(=O)CCCCCC(=O)Nc3ccccc3N)ccc2O[C@H]1CN(C)C(=O)Nc1ccccc1 | 0.9
C[C@@H]1CN([C@@H](C)CO)C(=O)c2cc(NC(=O)Nc3ccccc3)ccc2O[C@H]1CN(C)Cc1ccccc1 | -0.5
COc1ccc(NC(=O)Nc2cccc3c2O[C@@H](CN(C)CC2CC2)[C@H](C)CN([C@H](C)CO)C3=O)cc1 | -0.7
C[C@H](CO)N1C[C@H](C)[C@@H](CN(C)Cc2ccc(-c3ccccc3)cc2)Oc2ccc(NC(=O)Nc3ccc4c(c3)OCO4)cc2C1=O | -0.3
CC(=O)O[C@@H]1[C@H](c2ccc(=O)oc2)C2[C@H](C)C[C@H]3[C@@H](CC[C@@H]4C[C@@H](O)CC[C@@]43C)[C@]23O[C@H]13 (stereo not given in full) | 0.2
C[C@@H]1CN([C@@H](C)CO)C(=O)Cc2cc(NC(=O)Nc3ccccc3)ccc2O[C@@H]1CN(C)C(=O)Nc1ccccc1 | -1.6
COC(=O)C(CC#Cc1ccc2c(c1)[C@]1(C(=O)N2)[C@H](c2ccc(O)cc2)N2[C@H](c3ccccc3)[C@H](c3ccccc3)OC(=O)[C@H]2[C@@H]1C(=O)O)C(=O)OC | 1.3
COC(=O)C(CC#Cc1ccc2c(c1)[C@]1(C(=O)N2)[C@H](C(=O)N2CCCCCCC2)[C@H]2C(=O)O[C@H](c3ccccc3)[C@H](c3ccccc3)N2[C@@H]1c1ccccc1OCCO)C(=O)OC | -0.3
Cc1ccc(S(=O)(=O)N(C)C[C@@H]2OCCCC[C@H](C)Oc3ccc(N(C)C)cc3C(=O)N([C@@H](C)CO)C[C@H]2C)cc1 | -0.6
C[C@@H]1CN([C@H](C)CO)C(=O)CCCn2cc(nn2)CO[C@H]1CN(C)Cc1ccc2c(c1)OCCO2 | -0.4
C[C@@H]1CN([C@H](C)CO)C(=O)Cc2cc(NC(=O)NC3CCCCC3)ccc2O[C@H]1CN(C)S(=O)(=O)c1ccccc1 | 1.0
C[C@@H]1CN([C@@H](C)CO)C(=O)c2cc(NS(=O)(=O)c3ccc(F)cc3)ccc2O[C@@H](C)CCCCO[C@@H]1CN(C)C(=O)Nc1ccc(C(F)(F)F)cc1 | -0.6
O=C(CCCCCCC(=O)Nc1ccccc1O)N/N=C/c1ccc(O)cc1Br | 0.0
Cc1ccc(S(=O)(=O)Nc2ccc3c(c2)C(=O)N([C@@H](C)CO)C[C@H](C)[C@@H](CN(C)Cc2ccc(C(=O)Nc4ccccc4N)cc2)O3)cc1 | -0.4
C[C@@H]1CN([C@@H](C)CO)C(=O)c2cccc(NC(=O)Nc3ccccc3)c2O[C@@H]1CN(C)S(=O)(=O)c1ccccc1 | 0.0
O=C1N(CCS(=O)(=O)c2ccccc2)Cc2ccccc2[C@H]2OC(c3ccc(OCCCO)cc3)=N[C@@]12Cc1ccccc1 | -1.0
COc1ccc(NC(=O)Nc2ccc3c(c2)C(=O)N([C@H](C)CO)C[C@@H](C)[C@H](CN(C)C(=O)NC(C)C)O3)cc1 | -0.3
C[C@H]1CN([C@@H](C)CO)C(=O)c2cccc(NS(=O)(=O)c3cn(C)cn3)c2O[C@H]1CN(C)CC1CC1 | 1.1
C[C@@H]1CN([C@H](C)CO)C(=O)Cc2cc(NC(=O)Cc3ccccc3)ccc2O[C@H]1CN(C)S(=O)(=O)c1cccs1 | 2.7
CNC[C@@H]1Oc2ccc(NC(=O)Nc3c(C)noc3C)cc2C(=O)N([C@@H](C)CO)C[C@H]1C | -0.7
COc1ccc(CN(C)C[C@H]2OCc3cn(nn3)CCCC(=O)N([C@H](C)CO)C[C@@H]2C)cc1 | 0.9
C[C@H]1CN([C@@H](C)CO)C(=O)c2cccc(NC(=O)NC3CCCCC3)c2O[C@@H]1CN(C)C(=O)Nc1ccccc1 | -0.8
C[C@H]1CN([C@@H](C)CO)C(=O)c2cc(NS(=O)(=O)c3ccccc3)ccc2O[C@H]1CN(C)C(=O)Nc1ccc2c(c1)OCO2 | 0.5
COc1ccc(NC(=O)Nc2cccc3c2O[C@H](CN(C)S(=O)(=O)c2cccs2)[C@H](C)CN([C@@H](C)CO)C3=O)cc1 | 0.1
C[C@@H]1CN([C@H](C)CO)C(=O)c2cccc(NC(=O)Nc3cccc4ccccc34)c2O[C@@H]1CN(C)Cc1ccc(Cl)c(Cl)c1 | -0.5
CCO[C@@H]1OC(C(=O)Nc2ccccc2)=C[C@H](c2ccc3c(c2)OCO3)[C@H]1CCCO | 0.3
Cc1noc(C)c1NC(=O)N(C)C[C@H]1Oc2ccc(NS(=O)(=O)c3ccc(F)cc3)cc2C(=O)N([C@H](C)CO)C[C@H]1C | 0.5
C[C@@H]1CCCCO[C@@H](CN(C)Cc2ccc(Cl)c(Cl)c2)[C@H](C)CN([C@H](C)CO)C(=O)c2cc(NS(=O)(=O)c3cn(C)cn3)ccc2O1 | 1.1
C[C@@H]1CN([C@H](C)CO)C(=O)c2cccc(NS(C)(=O)=O)c2O[C@H]1CN(C)C(=O)NC1CCCCC1 | -0.7
New compounds follow:
SMILES | A1 apoptosis 2
COc1ccc(CN(C)C[C@@H]2Oc3ccc(NC(=O)Nc4ccc5c(c4)OCO5)cc3CC(=O)N([C@H](C)CO)C[C@H]2C)cc1 | 0.9
C[C@@H]1CN([C@H](C)CO)C(=O)c2cc(NC(=O)CCCN(C)C)ccc2O[C@@H](C)CCCCO[C@@H]1CN(C)S(=O)(=O)c1cn(C)cn1 | 0.7
C[C@@H]1CN([C@@H](C)CO)C(=O)c2cc(NC(=O)Cc3ccccc3)ccc2O[C@@H](C)CCCCO[C@H]1CN(C)C(=O)Cc1ccccc1 | 1.0
Cc1ccc(S(=O)(=O)Nc2ccc3c(c2)CC(=O)N([C@H](C)CO)C[C@H](C)[C@@H](CN(C)C(=O)Nc2c(C)noc2C)O3)cc1 | 0.5
C[C@@H]1CCCCO[C@H](CN(C)C)[C@H](C)CN([C@H](C)CO)C(=O)c2cc(NS(C)(=O)=O)ccc2O1 | 0.2
C[C@@H]1CN([C@@H](C)CO)C(=O)Cc2cc(NC(=O)Cc3ccccc3)ccc2O[C@H]1CN(C)Cc1ccc(C(F)(F)F)cc1 | 0.3
COc1ccc(NC(=O)N(C)C[C@@H]2Oc3ccc(NC(=O)NC4CCCCC4)cc3CC(=O)N([C@@H](C)CO)C[C@H]2C)cc1 | 0.3
C[C@@H]1CN([C@@H](C)CO)C(=O)c2cc(NC(=O)Cc3ccccc3)ccc2O[C@H]1CN(C)S(=O)(=O)c1ccc(Cl)cc1 | -0.2
CC(C)NC(=O)Nc1ccc2c(c1)CC(=O)N([C@H](C)CO)C[C@@H](C)[C@@H](CN(C)Cc1ccc(Cl)c(Cl)c1)O2 | 0.5
C[C@H]1CCCCO[C@@H](CN(C)C(=O)Nc2ccccc2)[C@@H](C)CN([C@@H](C)CO)C(=O)c2cc(NC(=O)Nc3ccc(F)cc3)ccc2O1 | -0.9
O=C(N/N=C/c1cc(O)ccc1Br)c1ccccc1O | -6.0

A run of entries taken from the entries so far, for reference:
SMILES | A1 apoptosis 2
Cc1noc(C)c1NC(=O)N(C)C[C@@H]1Oc2ccc(NC(=O)Nc3ccc(F)cc3)cc2CC(=O)N([C@H](C)CO)C[C@H]1C | 0.9
Cc1ccc(S(=O)(=O)N(C)C[C@H]2OCCCC[C@@H](C)Oc3ccc(NC(=O)NC(C)C)cc3C(=O)N([C@@H](C)CO)C[C@H]2C)cc1 | 1.3
CC(C)(C)OC(=O)Nc1cccc(/C=N/NC(=O)CCCCCCC(=O)Nc2ccccc2O)c1 | -0.5
C[C@H]1CN([C@@H](C)CO)C(=O)Cc2cc(NC(=O)Nc3cccc4ccccc34)ccc2O[C@@H]1CN(C)Cc1ccc(C(F)(F)F)cc1 | -0.3
CC(C)(C)OC(=O)NC1(/C=N/NC(=O)CCCCCC(=O)NO)CCCC1 | 0.5
